# Compound activity as filed in PubChem.
# KCNQ2 inh – KCNQ2 potassium channel inhibitors, primary screen, cell-based, CHO-K1, FluxOR thallium flux, B-score (AID 2156); actives 1.1% (n = 310,000); B-score at 10 µM; 20 min; hits give low values; only compounds with negative scores are shown here; some inactives read as strong as hits;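 active means fluorescence ratio B-score at most minus 3 library SDs, with starting brightness B-score within 2 library SDs, cut at about -5.5 in these data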
# Target sequence (O88943 whole entry, looked up): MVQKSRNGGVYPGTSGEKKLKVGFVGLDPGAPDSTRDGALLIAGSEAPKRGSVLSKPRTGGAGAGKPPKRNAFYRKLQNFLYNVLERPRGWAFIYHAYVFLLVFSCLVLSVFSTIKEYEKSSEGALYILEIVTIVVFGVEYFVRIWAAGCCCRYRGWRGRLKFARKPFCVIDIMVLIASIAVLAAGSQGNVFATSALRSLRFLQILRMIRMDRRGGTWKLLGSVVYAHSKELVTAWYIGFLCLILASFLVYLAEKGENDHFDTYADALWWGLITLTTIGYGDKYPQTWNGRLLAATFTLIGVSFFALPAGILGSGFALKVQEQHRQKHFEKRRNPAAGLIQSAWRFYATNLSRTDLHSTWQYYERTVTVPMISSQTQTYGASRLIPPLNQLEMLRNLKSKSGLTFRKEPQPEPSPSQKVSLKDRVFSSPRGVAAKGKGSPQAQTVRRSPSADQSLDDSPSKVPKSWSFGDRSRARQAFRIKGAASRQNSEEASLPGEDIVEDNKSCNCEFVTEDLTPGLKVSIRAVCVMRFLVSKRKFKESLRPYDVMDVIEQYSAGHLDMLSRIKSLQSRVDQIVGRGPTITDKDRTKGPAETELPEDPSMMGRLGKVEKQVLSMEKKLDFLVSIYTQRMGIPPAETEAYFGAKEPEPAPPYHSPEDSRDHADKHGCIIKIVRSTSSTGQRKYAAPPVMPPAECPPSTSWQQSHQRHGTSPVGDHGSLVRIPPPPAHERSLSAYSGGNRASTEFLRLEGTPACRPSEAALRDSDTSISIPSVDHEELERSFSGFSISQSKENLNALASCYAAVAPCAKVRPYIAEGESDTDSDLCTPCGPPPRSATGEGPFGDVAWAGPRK
# KCNQ2 inh baseline – second read-out of KCNQ2 inh, no call of its own (marks repeat the call); B-score; measured here: initial fluorescence intensity artifact check;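 brightness before thallium and not channel activity; 0 = typical well and far values either way flag optical interference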
# The depositor's hits bear a star; i = inactive. Only part of the results is shown; rates above refer to the full screens.
SMILES,KCNQ2 inh,KCNQ2 inh baseline
O=C1CSC(c2ccc(F)cc2)N1c1ccccc1F (stereo unspecified),i,-0.01
COc1ccccc1N1CCN(C(=O)C2CCN(C(=O)c3ccc(C(C)(C)C)cc3)CC2)CC1,i,2.12
CCOC(=O)c1c(NC(=O)CCc2ccc(CC)o2)sc(C)c1C,-8.2*,-1.45*
CN(CC(=O)NCC1CCCCC1)S(=O)(=O)c1ccc(F)cc1,i,0.07
Nc1nc2ccccc2n1C(=O)c1ccco1,i,0.43
Cc1cc(=O)n2nc(N3CCC(C(=O)NCc4cccnc4)CC3)sc2n1,i,-0.01
Cc1ccc(C(C)C)c(OCc2ccc(C(=O)N/N=C/c3ccc(O)cc3O)cc2)c1,i,-0.02
COC(=O)c1cc(NS(=O)(=O)c2ccc(NC(C)=O)cc2)ccc1Cl,i,-3.07
CC(=O)c1c(N2CCCCC2)nc(=O)n(-c2ccccc2)c1C,i,-0.81
CCOC(=O)c1sc(-c2ccccn2)nc1C,i,-0.47
Cn1c(CN(O)S(=O)(=O)c2ccc(Cl)cc2)nnc1C(F)(F)F,i,1.03
O=C(Cn1cnc2ccccc2c1=O)N1CCN(c2ccccc2)CC1,i,0.06
CCOCCCNC(=O)c1ccccc1SCC,i,-1.22
CCCCNC(=O)CSc1nc2ccccc2c(=O)n1C1CCCC1,i,-2.54
COc1ccc(C)cc1N(CC(=O)NCCSCc1ccco1)S(=O)(=O)c1ccc(C)cc1,i,-0.78
CC1=C(C)C(C)=C(C#N)C(=C(C#N)C#N)N1,i,2.46
COc1cc(/C=N/NC(=O)C(=O)/C=C2\NC(C)(C)Cc3ccccc32)ccc1O,i,-0.13
O=C(NN=C1CCCCC1)c1ccccc1-n1cccc1,i,0.92
Cc1cccc(N2CCN(C(=O)c3ccc4c(c3)OCCO4)CC2)c1C,i,-0.2
CCCCCCOc1ccc(NC(=O)CC2C(=O)N(CC)C(=S)N2Cc2ccco2)cc1 (stereo unspecified),i,-0.33
CN(C)c1ccc(-c2nnc(-c3ccc(S(=O)(=O)C(F)F)cc3)o2)cc1,i,2.7
COc1ccccc1N1CCN(CCCCN2C(=O)C3CCCCN3C2=O)CC1 (stereo unspecified),i,-0.1
Cc1cccc(N(C)C(=O)C2CCCN2S(=O)(=O)c2cccc3nsnc23)c1 (stereo unspecified),i,-0.18
OCCNc1ncnc2c1c(-c1ccccc1)c(-c1ccccc1)n2Cc1ccco1,i,0.16
Cc1nn(C(=O)Cn2cc([N+](=O)[O-])cn2)c(C)c1Cl,i,1.42
CSc1nsc(SCC(=O)Nc2nc3ccc(C)cc3s2)n1,i,3.82
O=S(=O)(c1ccccc1)N1CCN(C(=S)Nc2ccccc2Cl)CC1,i,-1.9
CCCCN(C)CCNC(=O)c1nn(-c2ccc(OC)cc2)c(=O)c2c1c1ccccc1n2C,i,-3.31
C=CCC(CC=C)(NC(=O)c1ccccc1C)c1ccccc1,i,-0.44
COc1ccc(CNC(=O)c2cc(C)nn2-c2ccccc2)cc1,i,-1.16
Cc1cc2ccccc2n1CCNC(=O)c1ccc(Br)o1,i,0.03
CCOc1cccc(NC(=O)CC#N)c1,i,-0.06
Cc1ccccc1-n1c(C)nnc1SCC(=O)NCC1CCCO1 (stereo unspecified),i,-0.43
Cc1nc(Cl)c2oc3ccccc3c2n1,i,-0.16
Cc1cc(-n2c(SCC(=O)Nc3ccc(F)c(F)c3)nc3n[nH]c(C)c3c2=N)ccc1Cl,i,-0.26
Cc1ccc(NC(=O)C2OCCc3ccccc32)cc1C (stereo unspecified),i,1.55
O=C(Cn1nnc(-c2ccccc2)n1)NCc1ccc2c(c1)OCO2,i,-0.03
Cc1cccc(C(=O)Nc2ccccc2SCC2CSc3nc4ccccc4c(=O)n32)c1 (stereo unspecified),i,-0.7
O=C(c1ccc2oc(CCCc3ccccc3)nc2c1)N1CCCCC1CO (stereo unspecified),i,2.18
O=S1(=O)CCO[C@H]2Cc3ccccc3[C@H]2N1Cc1cccc(F)c1,i,0.13
O=C(Nc1cccnc1Cl)c1cc([N+](=O)[O-])ccc1Cl,i,0.04
COc1ccc(NC(=O)C2CCC(C)(C(=O)O)C2(C)C)cc1 (stereo unspecified),i,-0.43
CCOC(=O)CCCCC(=O)c1[nH]c(=O)[nH]c1CSc1nc(-c2ccccc2)c(C#N)c(=O)[nH]1,i,-0.16
CC(=O)Nc1cccc(NC(=O)CSc2nccn2Cc2ccc(F)cc2)c1,i,1.39
CC(C)CN(CCCNC(=O)CN1C(=O)COc2ccc(S(=O)(=O)N3CCCC3)cc21)CC(C)C,i,2.68
CCC1c2ccc(C)n2CCN1C(=O)Nc1ccccc1C(=O)OC (stereo unspecified),i,0.23
Cc1cccc(/C=N\NC(=O)c2ccccc2-n2cccc2)c1,i,-0.4
Cc1occc1C(=O)NNC(=O)c1ccc(F)cc1,i,2.43
O=C(NC1CCCCC1)C(c1ccc(O)cc1)N(C(=O)c1cnccn1)c1cccc(F)c1 (stereo unspecified),i,-1.01
CC(C)CC(=O)NC(NC(=S)Nc1sc2c(c1C#N)CCCC2)C(Cl)(Cl)Cl (stereo unspecified),i,0.65

# Other structures
SMILES,KCNQ2 inh,KCNQ2 inh baseline
CCCCCC(C)n1[nH]c(=O)c2c(C)cc(C)nc21 (stereo unspecified),i,1
C=CCn1c(SC(F)F)nc2scc(-c3ccco3)c2c1=O,i,-0.52
O=C(NCC(c1ccco1)N1CCN(c2ccccc2)CC1)c1cccs1 (stereo unspecified),i,0.85
O=S(=O)(c1cccs1)N1CCN(c2ccccc2)CC1,i,1.07
CCn1c(COc2cc(C)cc(C)c2)nnc1SCC(=O)N1CCN(c2ccccc2)CC1,i,0.96
CCn1cc(/C=C(\NC(=O)c2ccc(OC)c(OC)c2)C(=O)N2CCOCC2)c2ccccc21,i,2.91
COc1ccc(C(=O)NCCSCc2ccccc2C)cc1,i,-0.65
O=C(C1CC12CCCC2)N1CCC(CO)(Cc2ccccc2Cl)CC1 (stereo unspecified),i,-1.21
COc1cccc(C(C(=O)NC2CCCCC2)N(C(=O)c2ccco2)c2ccccc2OC)c1 (stereo unspecified),i,-0.95
O=C(NCc1ccc2c(c1)OCO2)c1ccc(CN2CCc3ccccc3C2)cc1,i,0.16
O=C(CCCn1c(=O)c2sccc2n(Cc2ccc(F)cc2)c1=O)NCc1ccco1,i,-0.05
CCC(=O)NC(=S)NNC(=O)c1ccccc1[N+](=O)[O-],i,-0.6
COc1ccc(S(=O)(=O)Oc2ccc3c(c2)O/C(=C\c2cccnc2)C3=O)cc1,i,0.38
COc1ccc(NC(=O)c2cc(SC)ccc2Cl)cc1,i,0.68
O=C(Nc1ccc(Cl)cc1)Nc1ccc(N2CCOCC2)cc1,i,0.05
Cc1cccc(N2CCN(C(=O)c3cc(S(=O)(=O)N4CCOCC4)cn3C)CC2C)c1 (stereo unspecified),i,-0.72
CS(=O)(=O)Nc1ccc2c(c1)nc1n2CCOC1,i,2.3
Cc1ncn(-c2ccc(C(=O)Oc3ccccc3)cn2)n1,i,0.06
CCOc1ccccc1OCCCOc1ccc([N+](=O)[O-])cc1Cl,i,-0.46
NNC(=O)c1ccc(N2CCc3ccccc32)c([N+](=O)[O-])c1,i,-0.53
CCOC(=O)C1C(C#N)=C(N)OC(C)=C1c1ccncc1 (stereo unspecified),i,0.64
CCOC(=O)C1CCCN(S(=O)(=O)Cc2ccccc2Cl)C1 (stereo unspecified),i,2.37
COc1ccc(N2CCCn3c2nc2c3c(=O)n(Cc3ccccc3)c(=O)n2C)c(OC)c1,i,-0.3
CCOC(=O)N1CCC(NC(=O)CN2C(=O)CCSc3ccccc32)CC1,i,0.69
Oc1c(Cl)cc(CN2CCCCC2)c2cccnc12,i,1.42
O=C(NC1CCCCC1)c1ccc(CNc2nc(=S)[nH]c3ccccc23)cc1,i,-0.78
CC(C)n1c(/C=C/[C@@H](O)C[C@@H](O)CC(=O)O)c(-c2ccc(F)cc2)c2ccccc21,i,-1.79
COc1ccc(Cc2nnc(NS(=O)(=O)c3ccc(NC(C)=O)cc3)s2)cc1,i,0.49
CCCCc1ccc(NC(=O)CSc2nc(=O)n(CCN(C)C)c3c2CCC3)cc1,i,-0.68
Cc1cc(C)nc(NC(=O)C(c2ccccc2)c2ccccc2)c1,i,-0.23
CCN1C=C(Cc2ccc(F)cc2)C2=C(C1)C(c1ccc(F)cc1)C(C#N)=C(N)O2 (stereo unspecified),i,1.02
COc1cc(C(CCN2CCCC(C)C2)c2c(OC)cc(OC)c3c(-c4ccccc4)cc(=O)oc23)cc(OC)c1OC (stereo unspecified),i,2.02
CCOC(=O)C1=C(C)OC(N)=C(C#N)C1c1cc2c(cc1[N+](=O)[O-])OCO2 (stereo unspecified),i,0.07
COc1cccc(C(=O)Nc2cc(NC(=O)c3cccs3)ccc2C)c1,i,0.74
COC(=O)Nc1nnc(COc2cccc(C)c2)s1,i,0.2
C=CCn1c(SCC(=O)Nc2ccccc2C)nnc1-c1ccncc1,i,-1.04
Cc1ccc(N2CC(C(=O)Nc3nnc(SCC(N)=O)s3)CC2=O)cc1 (stereo unspecified),i,-0.72
Cc1ccccc1-n1c(O)c(/C=N/N2CCCCC2c2cccnc2)c(=O)[nH]c1=O (stereo unspecified),i,2.1
CC1=NOC(=O)/C1=C\c1ccc(-c2cc(Cl)ccc2Cl)o1,i,-0.82
Cc1cc(NC(=O)c2cccnc2)ccc1NC(=O)c1cc2ccccc2o1,i,-1.62
COc1ccc(-c2ncccc2OC(=O)C23CC4CC(CC(C4)C2)C3)cc1,i,0.07
COc1ccc(CN(C(=O)COc2ccc(C)c(C)c2)C2CCS(=O)(=O)C2)cc1OC (stereo unspecified),i,0.44
CCCc1cc(=O)[nH]c(SCC(=O)Nc2cc(C)on2)n1,i,2.22
Cn1cccc1CC(=O)NNC(=S)NC(=O)c1ccccc1Br,i,0.03
O=C(Cc1ccc([N+](=O)[O-])cc1)NCc1ccncc1,i,0.55
CN(C)S(=O)(=O)c1cccc(NC(=S)N/N=C/C(=O)c2ccccc2)c1,i,-0.33
CC(=C\c1ccccc1)/C=C1/SC(=S)N(CCC(=O)O)C1=O,i,0.26
Cc1ccc2cccc(SCC(=O)N3CCOCC3)c2n1,i,0.44
O=C(Nc1ccc(N2CCOCC2)c(Cl)c1)c1cc2ccccc2o1,i,-0.55
COc1ccc(CCC(=O)NCCOc2ccccc2Cl)cc1,i,-0.29

# Rewritten with each value named: part of the list above
COc1ccc(CN(C(=O)COc2ccc(C)c(C)c2)C2CCS(=O)(=O)C2)cc1OC (stereo unspecified)
  KCNQ2 inh: i	KCNQ2 inh baseline: 0.44

CCCc1cc(=O)[nH]c(SCC(=O)Nc2cc(C)on2)n1
  KCNQ2 inh: i	KCNQ2 inh baseline: 2.22

Cn1cccc1CC(=O)NNC(=S)NC(=O)c1ccccc1Br
  KCNQ2 inh: i	KCNQ2 inh baseline: 0.03

O=C(Cc1ccc([N+](=O)[O-])cc1)NCc1ccncc1
  KCNQ2 inh: i	KCNQ2 inh baseline: 0.55

# Next part
SMILES,KCNQ2 inh,KCNQ2 inh baseline
CCCC(=O)NC(=S)NNC(=O)c1ccc([N+](=O)[O-])cc1,i,-0.66
COc1ccc(Nc2oc(COc3ccc(C)cc3)nc2C#N)cc1,i,0.08
COc1ccc2c(Cl)c(C(=O)NCCCn3ccnc3)sc2c1Cl,i,-2.27
CCC(=O)N1CCN(c2ccc(Cl)cc2NC(=O)c2ccc(N3CCCC3)c([N+](=O)[O-])c2)CC1,i,-0.5
O=C(NCCc1ccccc1)C1CCCN1C(=O)NCc1ccccc1 (stereo unspecified),i,-2.65
O=C(NCc1ccccc1)c1ccc(F)c(S(=O)(=O)N2CCOCC2)c1,i,2.07
CCCc1nnc(NC(=O)CCS(=O)(=O)c2ccccc2)s1,i,0.17
COc1cc([N+](=O)[O-])ccc1NC(=O)Cc1ccc(F)cc1,i,1.45
O=c1cc(CN2CCN(c3cccc(C(F)(F)F)c3)CC2)nc2sccn12,i,0.87
CC(C)CC(C(=O)Nc1ccccc1)N1C(=O)C2C3C=CC(C3)C2C1=O (stereo unspecified),i,-1.36

# Gathered by group, the compounds so far with a CF3 group.
SMILES,KCNQ2 inh,KCNQ2 inh baseline
Cn1c(CN(O)S(=O)(=O)c2ccc(Cl)cc2)nnc1C(F)(F)F,i,1.03
O=c1cc(CN2CCN(c3cccc(C(F)(F)F)c3)CC2)nc2sccn12,i,0.87

# New compounds follow:
SMILES,KCNQ2 inh,KCNQ2 inh baseline
CN(C)S(=O)(=O)c1cccc(NC(=S)N/N=C/c2ccc(O)c(O)c2O)c1,i,-0.15
COC(=O)CCN(C(=O)C12CC3CC(CC(C3)C1)C2)c1ccccn1,i,1.25
COc1ccc(OC)c(N(CC(=O)NC2CC2)S(=O)(=O)c2ccc(C)cc2)c1,i,-0.2
CN(C)/C=C(/C(=O)c1ccc(Cl)c(Cl)c1)S(C)(=O)=O,i,0.31
O=C(CNS(=O)(=O)c1ccc(C(=O)N2CCOCC2)cc1)N1CCOCC1,i,-1.57
COc1ccc(-n2nc(C(=O)NCC(=O)N3CCN(c4cccc(Cl)c4)CC3)c3ccccc3c2=O)c(OC)c1,i,-1.81
Oc1ccc(Br)cc1/C=N/N1CCCCC1,i,-1.47
COc1ccc(CNS(=O)(=O)c2cc(OCC(N)=O)c(C)cc2Cl)cc1,i,-0.44
COc1ccc(CC(=O)c2c(O)cc(O)cc2O)cc1OC,i,-0.01
Cc1ccc(S(=O)(=O)N(CC(=O)N=Nc2c(O)[nH]c3ccccc23)c2cccc(C)c2)cc1,i,-1.09

# A stretch taken from the entries so far, for reference:
SMILES,KCNQ2 inh,KCNQ2 inh baseline
O=C1CSC(c2ccc(F)cc2)N1c1ccccc1F (stereo unspecified),i,-0.01
COc1ccccc1N1CCN(C(=O)C2CCN(C(=O)c3ccc(C(C)(C)C)cc3)CC2)CC1,i,2.12
CCOC(=O)c1c(NC(=O)CCc2ccc(CC)o2)sc(C)c1C,-8.2*,-1.45*
